MLL AF4-AF9 inh: inhibitors of AF4 peptide binding to AF9, primary screen, biochemical, AlphaScreen, biotin-AF4 peptide, FLAG-AF9, single point; Protein AF-9 (Homo sapiens), P42568; inhibition, % at 10 µM; actives 0.47% (n = 350,000); AID 651704, 2012;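 active = every replicate reaching a set inhibition limit, whatever the replicate mean, cut at about 25% in these data; inconclusive = mean inhibition reaches that limit but some replicates miss it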;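 also: 0% = plate neutral control median and 100% = total signal loss; the record names both 10 and 1 µM as test concentration; the first replicate is given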
Vif A3G: inhibitors of Vif binding to APOBEC3G peptide, primary screen, biochemical, TR-FRET, GST-Vif 1-94, biotin-A3G peptide, dose response retest (AID 1117319); TR-FRET GST-Vif / biotin-A3G peptide binding; higher % means a stronger effect; test concentration not given here; strong numbers were not always called active; actives 0.57% (n = 260,000); one-dose inhibition, %; IC50 in µM for titrated hits;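 active = above the screen mean plus three standard deviations and confirmed in dose response; inconclusive = results disagree or hit not tested in dose response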;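 also: Vif residues 1-94 fused to GST binding biotinylated APOBEC3G peptide 110-148; 0% = full assay without inhibitor and 100% = GST in place of GST-Vif; retest series ran down from 100 µM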
LANA-H2B inh: blockers of LANA interaction with H2A/H2B – biochemical, FP readout, HTS, primary screen; cell-free LANA-H2A/H2B peptide, fluorescence polarization; inhibition, % (test concentration not listed); actives 0.6% (n = 320,000); in the data active = inhibition mostly above about 10%, no sharp cut-off; inactive = mostly below about 6.7%;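 also: stock transfer was 7.5 nL into about 10 µL; 0% = median of vehicle wells and 100% = median of positive control wells; one replicate is shown; the record names a cut of 25% in any replicate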
Target sequence (Q9QR71 whole entry, looked up): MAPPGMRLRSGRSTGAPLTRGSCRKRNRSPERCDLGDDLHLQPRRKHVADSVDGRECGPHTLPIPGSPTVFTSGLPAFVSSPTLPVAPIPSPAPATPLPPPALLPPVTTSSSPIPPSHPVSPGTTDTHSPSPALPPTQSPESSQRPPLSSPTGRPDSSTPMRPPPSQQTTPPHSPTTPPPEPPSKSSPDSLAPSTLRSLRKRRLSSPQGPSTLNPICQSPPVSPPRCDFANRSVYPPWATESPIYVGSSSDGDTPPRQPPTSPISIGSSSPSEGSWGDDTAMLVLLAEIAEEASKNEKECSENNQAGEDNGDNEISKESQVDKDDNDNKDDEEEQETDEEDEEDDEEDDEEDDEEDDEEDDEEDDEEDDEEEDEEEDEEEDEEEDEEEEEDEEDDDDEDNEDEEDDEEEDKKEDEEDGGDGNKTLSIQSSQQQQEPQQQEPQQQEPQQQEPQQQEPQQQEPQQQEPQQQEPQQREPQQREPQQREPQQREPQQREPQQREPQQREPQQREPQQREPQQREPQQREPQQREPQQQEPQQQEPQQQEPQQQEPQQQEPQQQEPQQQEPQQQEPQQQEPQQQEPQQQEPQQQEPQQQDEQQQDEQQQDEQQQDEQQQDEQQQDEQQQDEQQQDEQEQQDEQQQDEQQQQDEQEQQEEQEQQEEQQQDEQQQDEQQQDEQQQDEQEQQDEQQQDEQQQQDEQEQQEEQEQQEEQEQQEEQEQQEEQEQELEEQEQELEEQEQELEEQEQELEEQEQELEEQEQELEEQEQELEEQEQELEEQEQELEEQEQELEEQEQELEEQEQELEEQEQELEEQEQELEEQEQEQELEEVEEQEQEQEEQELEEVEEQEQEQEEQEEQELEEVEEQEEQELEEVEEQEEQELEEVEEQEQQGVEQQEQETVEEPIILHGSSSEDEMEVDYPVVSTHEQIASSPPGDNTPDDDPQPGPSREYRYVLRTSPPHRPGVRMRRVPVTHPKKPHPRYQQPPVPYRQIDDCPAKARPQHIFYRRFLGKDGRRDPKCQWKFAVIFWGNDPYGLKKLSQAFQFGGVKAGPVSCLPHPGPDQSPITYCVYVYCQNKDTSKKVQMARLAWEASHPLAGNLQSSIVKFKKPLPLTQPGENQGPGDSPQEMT
T cruzi repl: inhibitors of intracellular T. cruzi growth, primary screen, luminescence, NIH3T3 host cells; actives 1.4% (n = 300,000); T. cruzi beta-gal in NIH3T3, 90 h; inhibition, % (no concentration beside the values);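 active = mean inhibition across valid replicates above about 55%, limit read from the data; inconclusive = mean below that limit but half or more replicates reach it; inactive = mean below it, under half of replicates reach it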;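 also: signal also drops with host cell toxicity which is not excluded here; 0% = plate median of DMSO wells and 100% = zero luminescence signal; higher percent means less beta-gal luminescence so fewer parasites; stock transfer was 50 nL into about 50 µL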
RanGTP-Imp inh: inhibitors of RanGTP-importin-beta interaction, primary screen, biochemical, FRET, CFP-Ran, YFP-importin-beta, homogeneous; Ran GTPase (GTP-bound) - importin-beta complex; cell-free CFP-Ran/YFP-importin-beta FRET ratio; inhibition, % (no concentration beside the values); actives 1.1% (n = 300,000); AID 2216, 2009;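 active = most replicates above 15%; inconclusive = exactly half above 15%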;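 also: 0% = DMSO wells and 100% = Ran loaded with GDP instead of GTP; wells of about 40 µL received 100 nL stock; the first replicate is given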
Calb FLC: C. albicans growth inhibition with fluconazole, primary screen, CaCi-2 strain, Alamar Blue fluorescence. C. albicans CaCi-2 (fluconazole-resistant clinical isolate) + fluconazole, 48 h. growth inhibition, % (test concentration not listed). actives 0.57% (n = 300,000);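 active = most replicates above 75%; inconclusive = exactly half above 75%; inactive = most below 75%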;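 also: all wells also contain fluconazole at 8 µg/ml as a sub-toxic cotreatment; 0% = median of DMSO wells and 100% = median of geldanamycin control wells; wells of about 8 µL received 7.5 nL stock; the first replicate is given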
A1 inh: caspase 3/7 activation in MEF A1-2A-BIM cells, primary screen, A1 inhibitor project, cell-based, luminescence, HTS. caspase activation, % (no concentration beside the values). Caspase-Glo 3/7 luminescence, 3 h; percent of clofoctol response, vehicle zero. actives 0.066% (n = 330,000);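 active = over half of replicate activation scores above 10%, or exactly half above 10 with the replicate mean above 10; inconclusive = replicate mean below 10 yet half the replicates above 10; inactive = over half of replicates below 10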;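 also: wells of about 30 µL received 50 nL stock; many hits fall short of the cut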
Beta cell apopt: inhibitors of cytokine-induced beta cell apoptosis, primary screen, luminescence | actives 0.8% (n = 300,000) | protection from apoptosis, % (no concentration beside the values) | INS-1E cytokine-induced death, ATP luminescence, 48 h; percent of positive-control rescue, neutral wells zero;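 active = all replicates at 75% or more, or half of them and the mean; inconclusive = half reach 75% but not the mean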;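 also: 0% = cytokine-treated negative control wells and 100% = positive control rescue; higher means more ATP so stronger rescue from cytokine killing; wells of about 40 µL received 100 nL stock; the first replicate is given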
* = called active by the depositor; ? = inconclusive; / = not tested or not shown.

SMILES	MLL AF4-AF9 inh	Vif A3G	LANA-H2B inh	T cruzi repl	RanGTP-Imp inh	Calb FLC	A1 inh	Beta cell apopt
O=S(=O)(Nc1ccc2c(c1)nc1n2CCN(Cc2ccccc2)C1)c1ccc(Cl)cc1	/	>100µM*	12	16	0.9	31	0.4	0
CCc1ccc(C2=NNC(=Nc3cccc(S(=O)(=O)N(C)C)c3)SC2)cc1	2.8	/	-3.3	41	-4.6	-7	-0.1	120*
Cc1[nH]c2ccc3c(ncn3CCC#N)c2c1C	/	1%	2.0	-14	-2.3	34	0.2	-7
CCOc1ccccc1CNS(=O)(=O)c1cnc[nH]1	-15	/	0.9	3	-1.1	0	1.0	-7
CCOc1ccc(N=Cc2c(O)c3ccccc3oc2=O)cc1	/	/	-2.1	4	-8.1	1	-9.3	-2
Cc1ccc(NC2=C(CC(=O)O)C(c3ccccc3)N(c3ccc(C)cc3)C2=O)cc1 (stereo not given)	0.5	/	4.0	12	3.8	-2	0.7	1
COCC(=O)N1CCC(Oc2ccc(C(=O)NCCCC3CCCC3)cc2)CC1	0.3	-5%	1.3	2	1.8	-9	-0.6	2
Cc1ccccc1NC(=O)CC1C(=O)NCCN1C(=O)c1cccc(Cl)c1 (stereo not given)	-1.7	/	0.4	-7	3.6	5	0.1	/
CCN1CN=C(NS(=O)(=O)c2ccc(C)cc2)NC1	/	1%	-1.9	-6	-4.1	-1	0.0	-6
CCOCC(=O)Nc1ccc(C)c(Cl)c1	/	72%	1.6	-8	0.9	-5	-0.8	/
COc1ccc(OC)c(C2=Nn3c(nnc3-c3ccco3)SC2)c1	/	?	-1.9	-11	5.2	1	-0.6	14
COc1ccc(/C=C/C(=O)c2ccc(O)cc2)cc1	7.3	0%	3.1	-20	2.7	18	-8.5	-3
Cc1ccc(NC(=O)/C(C#N)=C/c2ccsc2)c(C)c1	1.6	-18%	-2.4	2	-2.4	-2	-0.2	-7
N#Cc1ccc(NC(=O)COc2ccc(-n3cnnn3)cc2)cc1	-2.7	-1%	-1.2	/	/	/	0.2	1
CCOC(=O)c1csc(NC(=O)Nc2cccc(Cl)c2)n1	1.3	21%	-4.6	16	5.8	2	-0.9	2
CCNC(=O)/C(C#N)=C/c1c(N2CCCCCC2)nc2c(C)cccn2c1=O	7.8	1%	-0.9	-3	0.1	24	0.6	5
CC(CN1CCCCC1)C(=O)NN (stereo not given)	-0.4	-2%	-0.3	-6	1.6	1	-0.2	-4
CCOC(=O)C1=C2SCCN2C(=O)C(C#N)C1(C)C (stereo not given)	/	-4%	-0.4	-6	-1.8	-4	-0.2	2
COc1ccc(N2CCN(C(c3ccc4ncccc4c3)c3nnnn3C(C)(C)C)CC2)cc1 (stereo not given)	5.4	/	-4.3	15	1.3	-20	-1.4	-8
O=C(CSc1c2c(nc3ccc(Cl)cc13)CCCC2)NCCCN1CCOCC1	/	-5%	-0.1	18	-5.0	4	0.2	3
CC(=O)Nc1ccc(N/C=C/C(=O)c2ccc(C)cc2)cc1	2.6	/	7.2	1	-3.1	0	0.7	6
Cc1ccc(-c2nc(CS(=O)CC(=O)NC3CCCC3)c(C)o2)cc1 (stereo not given)	-28	?	-2.6	-5	2.9	-4	-0.7	-6
Cn1cccc1C(=O)OCc1csc(-c2ccccc2)n1	/	8%	-2.7	-6	1.0	-30	-7.7	/
C(=N\Nc1nc(N2CCCC2)nc(N2CCCC2)n1)/c1ccccc1OCc1ccccc1	4.9	2%	5.8	8	5.1	2	-1.6	/
CCc1c(C)nc2ccc(Br)cc2c1Cl	/	-7%	-1.9	1	-2.2	-7	1.0	0
COc1ccccc1C(=O)NC(CCSC)C(=O)NNC(=O)c1ccncc1 (stereo not given)	-1.5	-8%	1.2	-11	1.5	-16	0.0	0
CSc1nc(N)c(C(=O)Nc2ccc([N+](=O)[O-])cc2)s1	-0.3	2%	-2.9	-9	-0.5	/	-1.2	-7
O=C(COC(=O)/C=C/c1ccc(S(=O)(=O)N2CCOCC2)cc1)NCc1ccc(F)cc1	1.0	-7%	-1.8	33	5.4	30	-0.7	-3
Cc1ccc(CN2CCN(C(=O)CC(C)C)CC2)cc1	2.2	2%	-2.3	-11	5.3	-8	0.2	/
CC(NC(=O)C12CC3CC(CC(C3)C1)C2)C(=O)NCCN(C)C (stereo not given)	/	8%	2.8	10	-0.2	-2	0.3	-1
CCCCOc1ccc(C(C)NC(=O)C2CCCN(S(=O)(=O)CC)C2)cc1 (stereo not given)	/	-4%	-1.2	-3	3.2	1	-0.2	7
Cc1ccc(NC(=S)Nc2ccc(F)cc2)cc1	1.7	/	2.7	-2	-0.9	-6	-0.1	-3
COC(=O)c1ccc2nccnc2c1	-1.5	-4%	-0.8	-16	-1.5	-2	-0.1	-3
Cn1c(COc2ccccc2)nnc1SCC(=O)Nc1ccc(S(N)(=O)=O)cc1	/	2%	0.8	4	-3.1	-6	-0.2	2
Cc1ccc(N2CCN(C(=O)N3CCOCC3)CC2)c(C)c1	-0.6	28%	-0.9	/	/	-8	-0.4	-4
COc1ccccc1NS(=O)(=O)c1ccc(N/N=C(\C)C(C)C)c([N+](=O)[O-])c1	/	/	-5.8	18	?	-1	0.6	78*
CN1CC(=O)N(CC(=O)N2N=C(c3ccc(Cl)cc3)CC2c2ccco2)C1=O (stereo not given)	-0.3	-3%	-3.9	5	3.1	-3	-0.4	-3
C=CCn1c(SCC(=O)Nc2ccc(NC(C)=O)cc2)nc2sc(C)c(C)c2c1=O	4.3	-4%	1.7	/	/	/	0.3	-4
NC(=O)c1ccsc1NC(=O)COC(=O)CNC(=O)c1ccc(F)cc1	2.8	8%	3.3	/	/	/	-1.5	-3
O=C1C2ON(c3ccc(Br)cc3)C(c3cccnc3)C2C(=O)N1C1CCCCC1 (stereo not given)	/	-6%	1.0	34	2.9	-2	1.5	3
Cc1ccc(C2CC(c3ccccc3)=NN2C(=O)CSc2nnc(-c3ccncc3)n2C)o1 (stereo not given)	-2.0	3%	-2.2	47	-4.6	1	-0.2	-9
CCCCOc1ccc(OC(=O)Nc2cc(Cl)ccc2OC)cc1	-6.4	-2%	0.6	-26	0.4	1	0.0	-1
O=C(C1CCN(C2CCN(Cc3ccsc3)CC2)CC1)N1CCOCC1	-0.1	1%	2.2	8	-0.5	-5	0.0	3
O=C1/C(=C\c2ccc(Br)o2)SC(=Nc2ccccc2)N1c1ccccc1	/	?	-3.7	30	-3.0	3	-0.2	-8
Cc1cc(S(=O)(=O)NCC(=O)O)ccc1F	/	29%	0.4	0	0.2	1	0.3	1
COc1ccc(S(=O)(=O)N2CCC(C(=O)N3CCc4ccccc4C3)CC2)cc1	/	5%	6.4	4	6.4	-1	0.4	1
O=C(O)C1C2CCCCC2=C2CCCCC2C1C(=O)c1ccccc1 (stereo not given)	-4.7	5%	7.7	-11	-0.3	57	-0.6	-3
Cc1cc2ccccc2c(=O)[nH]1	/	0%	-4.2	3	1.8	5	0.0	-2
O=C(c1cccc(Cl)c1)N1CCCC(C(=O)N2CCCCCC2)C1 (stereo not given)	/	-1%	0.8	1	-0.9	3	0.5	0
CCCCN(C(=S)NC(=O)c1cc(OC)c(OC)c(OC)c1)c1c(N)n(Cc2ccccc2)c(=O)[nH]c1=O	-34	25%	3.8	-14	0.5	2	-0.4	2

Structural class: the entries above containing a nitro group on carbon.
SMILES	MLL AF4-AF9 inh	Vif A3G	LANA-H2B inh	T cruzi repl	RanGTP-Imp inh	Calb FLC	A1 inh	Beta cell apopt
CSc1nc(N)c(C(=O)Nc2ccc([N+](=O)[O-])cc2)s1	-0.3	2%	-2.9	-9	-0.5	/	-1.2	-7
COc1ccccc1NS(=O)(=O)c1ccc(N/N=C(\C)C(C)C)c([N+](=O)[O-])c1	/	/	-5.8	18	?	-1	0.6	78*

Continued:
SMILES	MLL AF4-AF9 inh	Vif A3G	LANA-H2B inh	T cruzi repl	RanGTP-Imp inh	Calb FLC	A1 inh	Beta cell apopt
COc1cc([N+](=O)[O-])ccc1NC(=O)NNC(=O)CCc1ccccc1	0.2	2%	2.5	15	-0.3	-7	-0.1	0
CCCCNC(=S)NNC(=O)c1nn(C)cc1Cl	/	12%	-0.6	-1	0.3	12	0.2	-4
Cc1cc(=O)[nH]c(SCC(=O)Nc2nc(-c3ccccc3)cs2)n1	/	15%	2.4	-3	2.0	1	-0.3	/
CCn1c(C)cc(/C=C2/SC(=O)N(CC(=O)N3CCCC3)C2=O)c1C	8.4	/	1.7	5	-3.3	-3	-0.3	-5
O=C(C1CCN(S(=O)(=O)c2cccc3cccnc23)CC1)N1CCN(c2ccccc2)CC1	5.8	3%	0.6	/	/	/	0.4	/
CC1CCCN(S(=O)(=O)c2csc(C(N)=O)c2)C1 (stereo not given)	-4.8	/	2.0	2	2.3	7	-0.2	-2
COc1cc(/C=C/C(=O)C2C(=O)C=C(C)OC2=O)cc(OC)c1O (stereo not given)	/	/	3.2	1	-3.6	-5	0.2	-6
O=C(COc1ccc(S(=O)(=O)N2CCOCC2)cc1Cl)NCc1ccccn1	2.6	/	4.5	4	-1.5	-3	0.7	2
COC(=O)c1cc(S(=O)(=O)N2CCCCCC2)c[nH]1	/	/	-0.1	-11	1.2	-10	-0.2	-1
Cc1csc(CN(C)C(=O)CC2C(=O)NCCN2Cc2ccc(Cl)c(F)c2)n1 (stereo not given)	-4.7	/	6.3	-9	2.2	27	0.5	-9
c1ccc(-c2nnc3sc(-c4ccncc4)nn23)cc1	/	12%	-1.8	-14	-3.2	-1	0.6	-3
Cc1ccc(S(=O)(=O)N2CC(C(=O)O)Oc3ccccc32)cc1 (stereo not given)	-2.7	0%	6.2	4	0.1	2	1.1	-1
CS(=O)(=O)N1CCCC(C(=O)Nc2c(F)cccc2F)C1 (stereo not given)	-2.7	/	0.8	-2	-2.2	-5	-0.2	/
COc1ccccc1Nc1ccc([N+](=O)[O-])cn1	3.8	4%	-1.8	-2	-4.3	-14	-0.1	-1
Cn1c(CCc2ccc(N)cc2)nc2ccccc21	1.0	8%	-1.3	-8	7.7	-17	-5.0	0
Cc1ccc2c(c1)C1(OCCO1)C(=O)N2	/	4%	-0.7	-8	6.2	9	0.4	0
CCCn1c(=N)c(C#N)cc2c(=O)n3cccc(C)c3nc21	/	7%	2.4	3	148*	-12	-0.5	-5
CC(C)N(c1ccccc1)c1ncnc(NCCC(=O)O)c1[N+](=O)[O-]	/	-1%	-1.7	-6	-0.4	2	0.7	/
COc1ccc(NC(=O)CSc2nnc(Cc3ccccc3)o2)c(OC)c1	-19	-4%	5.7	-5	5.9	-10	-0.1	1
COC(=O)c1ccc(N=NNc2ccccc2)cc1	/	4%	-2.8	-2	-1.1	-15	0.9	0
O=C(Nc1ccc(NC(=S)NC(=O)c2ccco2)cc1)c1ccccc1	-2.5	-6%	-0.9	2	?	19	-0.6	-4
CCN(CC)CCCNC(=S)N(Cc1cccnc1)Cc1cc2cc(C)ccc2[nH]c1=O	-5.6	7%	1.4	-12	0.6	-9	-0.4	-7
